TAR Tat displ: TAR RNA-Tat peptide displacers, HIV-1, primary screen, biochemical, FRET, FAM/TAMRA-labeled Tat; z-score (test concentration not listed); actives 0.6% (n = 100,000); AID 1259389, 2018; HIV-1 TAR RNA, Tat peptide displacement FRET; active compounds read high;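 further: score is relative to mean and SD of negative controls; some compounds called inactive have numbers as strong as hits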
CDC25B CDK2 inh: primary biochemical HTRF screen for blockers of M-phase inducer phosphatase 2 binding to CDK2/cyclin A; actives 0.72% (n = 94,000); AID 1259370, 2018; z-score (test concentration not listed); P30305+P24941; HTRF CDC25B-CDK2/CyclinA binding, anti-His/anti-Flag; active compounds read high;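 further: score is relative to mean and SD of negative controls; strong numbers were not always called active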
* hit, by the source's call; . = no result given.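 How the source made its calls: active means z-score from 3 up in half or more of its runs; inactive means the rest.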

Start of the data: the first four records as a preview:
SMILES | TAR Tat displ | CDC25B CDK2 inh
CN1c2ccccc2-c2nc(SCC(=O)Nc3ccccc3Br)ncc2S1(=O)=O | -7 | .
CC1=C(C(=O)NCCCN2CCN(C3CCCCC3)CC2)C2(CCCCC2)OC1=O | 0.34 | .
CC(CC(=O)NCc1ccc2c(c1)OCO2)S(=O)(=O)c1ccc2c(c1)CCN2C(=O)C1CC1 (configuration not stated) | -0.93 | .
O=C(O)c1ccc2c(-c3ccccc3)onc2c1 | 1.6 | -2.6

All compounds of this part, from the first entry:
SMILES | TAR Tat displ | CDC25B CDK2 inh
CN1c2ccccc2-c2nc(SCC(=O)Nc3ccccc3Br)ncc2S1(=O)=O | -7 | .
CC1=C(C(=O)NCCCN2CCN(C3CCCCC3)CC2)C2(CCCCC2)OC1=O | 0.34 | .
CC(CC(=O)NCc1ccc2c(c1)OCO2)S(=O)(=O)c1ccc2c(c1)CCN2C(=O)C1CC1 (configuration not stated) | -0.93 | .
O=C(O)c1ccc2c(-c3ccccc3)onc2c1 | 1.6 | -2.6
COc1ccc(Cl)cc1S(=O)(=O)Nc1cccc(-c2ccc(N3CCCC3)nn2)c1 | 1.3 | .
O=C(NCC1CCCO1)c1sc2ccccc2c1Cl (configuration not stated) | 3.3 | -0.81
O=C(NC1CCCCNC1=O)c1csc2ccccc12 (configuration not stated) | . | -1.8
O=C(NC1CCS(=O)(=O)C1)c1cc(-c2ccc3c(c2)OCCO3)on1 (configuration not stated) | 2.1 | -1.6
CCCOc1ccccc1C1C(C(=O)OCc2ccccc2)=C(C)NC2=C1C(=O)CCC2 (configuration not stated) | 1.8 | .
CCCCOC(=O)C1=C(C)NC2=C(C(=O)CCC2)C1c1ccc(OC)c(OC)c1 (configuration not stated) | -0.08 | -1.5
C=CCN1C(C(=O)c2ccccc2)=C(OC(=O)C(C)(C)C)c2ccccc2S1(=O)=O | . | -0.41
COC(=O)c1cc(S(=O)(=O)N2CCN(C(c3ccc(F)cc3)c3ccc(F)cc3)CC2)cn1C | -0.06 | .
C=CCN1C(=O)C2(c3ccccc31)c1c(oc3ccc(F)cc3c1=O)C(=O)N2CCCOC(C)C (configuration not stated) | 0.11 | -3.2
CC(=O)N1c2ccc(S(=O)(=O)N3CCCC3C(=O)NCc3ccc4c(c3)OCO4)cc2CC1C (configuration not stated) | 1.3 | .
Cc1nn(-c2ccccc2)nc1C(=O)Nc1nnc(C2CC2)s1 | . | -1.1
COc1ccc(S(=O)(=O)NCCc2cc3c(OC)ccc(OC)c3[nH]c2=O)cc1 | . | -1.6
Cc1ccc(N=Cc2c(O)c([N+](=O)[O-])cc3oc4c(c23)CCCC4)cc1C | . | -2.6
CCN(C1CCCCC1)S(=O)(=O)c1cc2c3c(c1)CC(=O)N3CCC2 | 1.3 | .
O=c1[nH]c2cc3c(cc2c(=O)n1Cc1nc(-c2ccccc2Cl)no1)OCO3 | -1.8 | .
Cc1noc(C)c1S(=O)(=O)Nc1ccc(C(C)C)cc1 | 0.46 | -1.5
Cc1ccc(C)c(N2CCN(Cc3csc(C)c3)CC2)c1 | 1.5 | .
c1ccc(Nc2nc(-c3ccccc3)nc3ccccc23)cc1 | -0.47 | -0.7
COC(=S)Nc1c(Br)cc(C)cc1Br | . | -1.8
CC1CCN(CCNC(=O)c2cnc3sc(N4CCOCC4)nn3c2=O)CC1 | 1.2 | 0.75

Six entries picked at random from those above:
SMILES | TAR Tat displ | CDC25B CDK2 inh
c1ccc(Nc2nc(-c3ccccc3)nc3ccccc23)cc1 | -0.47 | -0.7
Cc1nn(-c2ccccc2)nc1C(=O)Nc1nnc(C2CC2)s1 | . | -1.1
CC1CCN(CCNC(=O)c2cnc3sc(N4CCOCC4)nn3c2=O)CC1 | 1.2 | 0.75
COC(=S)Nc1c(Br)cc(C)cc1Br | . | -1.8
Cc1ccc(N=Cc2c(O)c([N+](=O)[O-])cc3oc4c(c23)CCCC4)cc1C | . | -2.6
Cc1ccc(C)c(N2CCN(Cc3csc(C)c3)CC2)c1 | 1.5 | .

Remaining list, next part
SMILES | TAR Tat displ | CDC25B CDK2 inh
O=C(O/N=C1\CCCCC1Cn1ccnc1)c1ccc(Cl)cc1 (configuration not stated) | . | -1.3
CCN(C(=O)c1nn(C)c2c1CSc1ccccc1-2)c1ccccc1 | 0.47 | 2
COC(=O)c1cccc(CN2C(=O)CSC2=O)c1 | . | -1.1
C#CCN1C(=O)C(O)(CC(=O)c2ccc(F)cc2)c2ccccc21 (configuration not stated) | 0.04 | -2
CCc1ccc(C2CC(c3c(F)cccc3Cl)n3nnnc3N2)cc1 (configuration not stated) | 0.69 | .
Cc1ccsc1C1CC(=O)Nc2c1c(C)nn2-c1nc2ccccc2[nH]1 (configuration not stated) | 1.4 | .
CCC(C)OC(=O)C1=C(C)NC(=O)CC1c1ccc(Br)cc1 (configuration not stated) | 1.5 | 2.9
COC(=O)c1ncn2c1C(=O)N(Cc1ccco1)C(C)(C(=O)NC1CCCC1)C2 (configuration not stated) | -0.11 | .
COc1cccc(NC2c3ncccc3C(=O)N2Cc2cccs2)c1 (configuration not stated) | 2.8 | .
Cc1ccc2n1CCN(C(=O)Nc1ccccc1)C2C(C)C (configuration not stated) | 2.1 | .
O=C1C2CC=C(Cl)CC2C(=O)N1c1ccc2ccccc2c1 (configuration not stated) | 1.3 | -0.69
CC(C)CN(CC(C)C)S(=O)(=O)c1ccc(-c2ccc(=O)[nH]n2)o1 | 3.1 | .
COc1ccc(C2=CC(=O)OC3(CCCCC3)O2)cc1 | . | -1.6
CCc1c(N2CCOCC2)nc2n(c1=O)CCCS2 | 0.6 | -1.4
O=C1CSc2ccc(S(=O)(=O)NCc3ccc(F)cc3)cc2N1 | -0.73 | .
CCC(C)N(CCNC(=O)Cn1c(=O)oc2ccccc21)Cc1cccs1 (configuration not stated) | -0.7 | .
O=C1C2C3CCCC3=C3CCCC3C2C(=O)N1c1ccc(F)cc1 (configuration not stated) | 0.59 | -2.2
Cc1cccc(C)c1-n1c(=O)c(C#N)cc2c(=O)n3ccccc3nc21 | 0.13 | 1.2
CC1CCN(C(=O)CSc2nc3ccccc3c(=O)[nH]2)CC1 | 2.1 | .
CC(C)c1ccc(NS(=O)(=O)c2ccc3c(c2)NC(=O)CS3)cc1 | 2.8 | .
O=C(NCc1ccc2c(c1)OCO2)c1ccc(Br)o1 | . | -0.24
Cc1cc(C(=O)NNc2cc(Cl)ccc2Cl)no1 | . | 0
Nc1ccccc1SC1=CS(=O)(=O)c2ccccc21 | -1.7 | -3.1
Cn1c(=O)oc2cc(S(=O)(=O)Nc3ccc(C(=O)O)cc3)ccc21 | -6.6 | -0.14

Reformatted with values under each structure: entries from further up.
Values run as follows: TAR Tat displ, CDC25B CDK2 inh
Cc1cccc(C)c1-n1c(=O)c(C#N)cc2c(=O)n3ccccc3nc21
    0.13, 1.2
O=C1C2C3CCCC3=C3CCCC3C2C(=O)N1c1ccc(F)cc1 (configuration not stated)
    0.59, -2.2
CCC(C)N(CCNC(=O)Cn1c(=O)oc2ccccc21)Cc1cccs1 (configuration not stated)
    -0.7, .
CC1CCN(C(=O)CSc2nc3ccccc3c(=O)[nH]2)CC1
    2.1, .
Cc1cc(C(=O)NNc2cc(Cl)ccc2Cl)no1
    ., 0
O=C(NCc1ccc2c(c1)OCO2)c1ccc(Br)o1
    ., -0.24

New compounds follow
SMILES | TAR Tat displ | CDC25B CDK2 inh
O=S(=O)(c1ccc(-c2cn3ccccc3n2)cc1)N1CCCCC1 | . | -1.8
Cc1cc(C)c(S(=O)(=O)NCC(c2ccco2)N2CCN(c3ccc(F)cc3)CC2)c(C)c1 (configuration not stated) | 0.62 | .
CCOCCCNc1cc(N2CCOCC2)c2noc3c2c1C(=O)c1ccccc1-3 | 6.8* | 0.63
Oc1ccc2ccccc2c1-c1nc2ncccn2c1Nc1ccccc1 | -0.99 | -0.66
CC(=O)N1c2ccc(S(=O)(=O)N3CCOCC3)cc2CC1C(=O)NCCC(C)C (configuration not stated) | 1 | .
O=C1CC(c2ccc(Br)cc2)N=C(NC(=O)c2cccnc2)N1 (configuration not stated) | 0.49 | .
COc1ccc(-c2cnc(C)o2)cc1S(=O)(=O)Nc1ccc(C)c(N(C)C)c1 | 1.1 | .
Cc1cc(-c2ccc(C)c(S(=O)(=O)Nc3ccc(Cl)cc3C)c2)on1 | 0.83 | .
COC(=O)c1cc(N2C(=O)C3C4C=CC(CC4)C3C2=O)ccc1Cl (configuration not stated) | 1.5 | -0.48
Cc1ccc(N2C(=O)CC(N3CCSCC3)C2=O)c(C)c1 (configuration not stated) | . | -1.6
Cn1c(=O)c(=O)n(C)c2cc(S(=O)(=O)N3CCN(c4ccccc4)CC3)ccc21 | . | -2.2
COc1cc(C)nc(SCC(N)=O)n1 | 1.6 | -1
CSC1=N/C(=C\c2ccc(N(C)C)cc2)C(=O)S1 | -4.9 | 0.86
O=C(Nc1ccc(F)cc1F)c1cnc2sc(N3CCOCC3)nn2c1=O | 0.33 | .
Cc1nn2c(=O)cc(COC(=O)COc3ccccc3)nc2s1 | 0.56 | .
O=C(c1cc(-c2ccc(O)cc2)on1)N1CCCC1 | 0.77 | -1.1
CCCCCN1C(=O)c2cccc3cccc(c23)C1=O | -1.2 | -1.2
O=C(O)c1cccc(N2C(=O)c3ccc(OCCOc4ccc5c(c4)C(=O)N(c4cccc(C(=O)O)c4)C5=O)cc3C2=O)c1 | . | -2.7
c1ccc2[nH]c(CCc3nc4ccccc4[nH]3)nc2c1 | 0.95 | -0.47
O=C(CSc1nccn(-c2cccc(F)c2)c1=O)Nc1ccccc1F | 0.45 | .
COc1ccc(C(=O)CC2(O)C(=O)Nc3ccccc32)c(OC)c1 (configuration not stated) | 0.43 | -0.32
CN(C)C(=O)c1ccc2c(c1)N(CC(=O)O)C(=O)CS2 | 1.6 | .
CCCCN(C)C(=O)Cn1c2ccccc2c2nc(=O)cc(C)n21 | -0.3 | -0.49
O=C(OCCNc1nc(-c2ccccc2)nc2ccccc12)c1cccnc1 | . | 0.21
Cc1csc2nc(COC(=O)c3cccc(F)c3)cc(=O)n12 | 1.5 | .
O=C(Cc1c(O)c2ccccc2[nH]c1=O)Nc1cccc(F)c1 | . | -2.1
COC(=O)C(C)Oc1cc2oc(=O)c3c(c2cc1Cl)CCCC3 (configuration not stated) | . | -1.8
CC(C)Cn1c(-c2ccco2)nc2ccccc21 | -0.06 | 2.9
Cc1nn(S(C)(=O)=O)c(C)c1S(=O)(=O)N1CCCC1 | 0.8 | .
CC(C)CN1C(=O)c2cccc3cccc(c23)C1=O | . | -0.5
CCC(C(=O)N1CCN(c2cc(=O)n3nc(-c4ccccc4)sc3n2)CC1)c1ccccc1 (configuration not stated) | 0.41 | .
Cc1cc(-n2c(C)ccc2C)no1 | . | -1.7
CC(NC(=O)c1ccco1)C(c1cccs1)N1CCN(C)CC1 (configuration not stated) | . | -0.19
Cn1cc(S(=O)(=O)N2CCc3ccccc32)cc1C(=O)N1CCCC1 | -0.63 | -1.4
O=C1O[C@H]2C[C@@H]3C[C@H]2[C@H]1[C@@H]3C(=O)N(Cc1ccccc1)Cc1ccccc1 | 1.7 | -0.98
Fc1ccc(Nc2ncnc3c2cnn3-c2ccc(F)cc2)cc1 | 1.2 | .
CC(C)CCNC(=O)C1CCC(CNc2c(N3CCCC3)c(=O)c2=O)CC1 (configuration not stated) | 1.6 | -2.4
CCOC(=O)CC(=O)CSc1nc2c(sc(=S)n2-c2ccc(OCC)cc2)c(=O)[nH]1 | 1.3 | -2.3
Cc1cc(NC(=O)CSc2nc(-c3ccc(F)cc3)nc3c2c(=O)n(C)c(=O)n3C)no1 | . | -1.9
O=C(Cn1c(=O)sc2ccccc21)N1CCOCC1 | . | -0.87
CC1=C(c2ccc(C)cc2)S(=O)(=O)N=C1Nc1cc(C)ccc1C | -0.6 | -0.24
COCCn1c(SCC(=O)N2CCOCC2)nc2c(c1=O)SC(C)C2 (configuration not stated) | . | -1.9
C=CCSc1nnc(NC(=O)c2cc(=O)c3cc(Cl)ccc3o2)s1 | 2.2 | 0.15
O=C(Cn1nc(C(F)(F)F)c2c1CCC2)Nc1cccnc1Cl | . | -0.03
CCOC(=O)CNC(=O)N1CCC(CN2CCCC2)CC1 | -0.55 | .
CSC1=NCCCN1C(=O)c1c(-c2c(F)cccc2Cl)noc1C | . | -0.45
Cn1ncc2c(Nc3cccc(Cl)c3)nc(Nc3ccccc3)nc21 | 0.74 | .
CCn1c(SCC(=O)N(C)C2CCCCC2)nc(=O)c2c(C)cc(C)nc21 | 0.11 | .
CCCc1nnc(NC(=O)CN2C(=O)c3ccccc3S2(=O)=O)s1 | . | 0.12
COC(=O)C1=C(C)N=C2SCCC(=O)N2C1c1ccc(OC(=O)c2ccco2)cc1 (configuration not stated) | 0.48 | -2.6
COc1ccc(N2C(=O)CC(N3CCN(c4nc5ccccc5s4)CC3)C2=O)cc1 (configuration not stated) | 2.5 | -0.5

Compound activity: PubChem BioAssay, Center for Chemical Genomics, University of Michigan
